Bioassay records from PubChem.
AID504770: growth inhibition of E. coli YBA685, primary screen, V. cholerae RctB inhibitors; E. coli YBA685 rctB-dependent plasmid, OD600 growth, 3 h; stronger effect = lower value; z-score (concentration not given with the values); 130,000 tested, 0.27% active;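 active means z-score under -2 on both plates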;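 further: wells of about 30 µL received 100 nL stock; score is relative to mean and SD of the test wells; the first replicate is given; strong numbers were not always called active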
Ba CapD inh: Bacillus anthracis CapD inhibitors, primary screen, biochemical, fluorescence intensity; CapD gamma-glutamyltranspeptidase (Bacillus anthracis Ames Ancestor); purified CapD enzyme, fluorescence intensity read-out; stronger effect = lower value; some hits fall short of the stated cut; z-score (concentration not given with the values); 140,000 tested, 0.23% active; AID 492967, 2010;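 active means z-score under -4 in either of two replicates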;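 further: stock transfer was 100 nL into about 40 µL; score is relative to mean and spread of the plate; one replicate is shown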
The depositor's hits bear a star; · = no result given.

SMILES	AID504770	Ba CapD inh
CCCCn1c(CN2CCN(CC)CC2)nc2c1c(=O)[nH]c(=O)n2C	-0.85	0.59
COc1ccc(/C=C2\SC(=O)N(CCCC(=O)N3CCOCC3)C2=O)cc1OC	·	-1.6
COc1ccccc1C(=O)NCc1ccc2[nH]c(C)cc2c1	0.1	·
O=C(CSc1nc2ccccc2c(=O)n1-c1ccccc1)N1CCC1	0.45	·
S=c1[nH]c(=S)c2cnc(N3CCc4ccccc43)nc2[nH]1	2.3	-0.08
CCOC(=O)N1CCN(CC(O)COc2cc(C)ccc2C(C)C)CC1 (stereo not drawn)	-0.4	-0.79
CCOC(=O)c1nc(-c2ccccc2)sc1-c1ccnn1C(=O)NC(C)C	-0.05	48
COc1cccc(N/C(SCc2cccc([N+](=O)[O-])c2)=C(/C#N)C(=O)NCc2ccccc2)c1	·	3.3
CSc1ncc(Cl)c(C(=O)N2CCN(c3cccc(Cl)c3)CC2)n1	-1.1	-0.2
O/N=C1/CCCc2c1nc(-c1ccccc1)n2O	·	6.2
O=C(Nc1cc2c(cc1[N+](=O)[O-])OCCO2)c1cc2nc(-c3cccs3)cc(C(F)(F)F)n2n1	·	-2.3
N#Cc1ccccc1COC(=O)c1ccc2c(c1)OCO2	-0.55	·
O=C(NCCO)c1cc2ccccc2c(=O)s1	1.7	-1.8
CC(=O)OCC1OC(n2cnc3[nH]ncc3c2=O)C(OC(C)=O)C(OC(C)=O)C1OC(C)=O (stereo not drawn)	·	-0.81
CC(C)(CO)NC(=O)c1cc(-c2ccccc2F)no1	-0.95	-0.18
CN1CCCC(OC(=O)c2ccc(C#N)cc2)C1 (stereo not drawn)	-0.3	0.68
O=C(CSc1nnc(-c2ccncc2)n1Cc1ccccc1)c1ccc(Br)cc1	·	-0.055
C=CCN(c1ccccc1C1=N/C(=C\c2ccc(C)cc2)C(=O)O1)S(=O)(=O)c1ccc(C)cc1	-0.05	0.42
COc1ccc(-n2c(=O)c(CCC(=O)NC3CC3)nc3ccccc32)cc1	-0.15	·
CC(C)c1ccc(N2CC(O)=C(c3nc4ccccc4n3C)C2=N)cc1	0.4	-1.7
O=C(CSc1cccc[n+]1[O-])NCCCc1ccccc1	-0.25	-0.48
COC(=O)c1ccc2c(=O)n(Cc3ccc4c(c3)OCO4)c(SCC(=O)Nc3ccc(OC)cc3OC)nc2c1	·	-0.18
CCSc1cc(C(F)(F)F)c(C(=O)N(C)Cc2c(OC)cccc2OC)cn1	2	-0.12
COc1ccc(CN(C)Cc2ccccc2)cc1	-0.2	0.1
CCOC(=O)Cn1cc2c(c1-c1ccccc1)c(=O)n(C)c(=O)n2C	0.65	0.49
COc1ccc(C2CC(C(F)(F)F)n3ncc(C(=O)N4CCc5cc(OC)c(OC)cc5C4C)c3N2)cc1OC (stereo not drawn)	·	0.33
O=c1oc2ccccc2c2c1Sc1ccccc1N2	0.85	0.015
Cc1cc(C)nc(Nc2n[nH]c(-c3ccccc3C)n2)n1	-0.1	1.6
Cc1ccc(NC(=O)C2COc3ccccc3O2)cc1Cl (stereo not drawn)	-1.1	-1
CCCC(=O)c1ccc(NC(C)=O)cc1O	-0.05	-0.055
O=C(Nc1ccc2sccc2c1)C1COc2ccccc2O1 (stereo not drawn)	0.45	0.23
CCSc1ccc(NC(=O)Cc2ccccc2)cc1	-0.85	-0.32
CCC(C)NC(=O)C1CCN(S(=O)(=O)c2ccc3nc(-c4ccccc4)[nH]c3c2)CC1 (stereo not drawn)	0.65	-0.05
Cc1ccc(F)cc1S(=O)(=O)NCCCN1CCCC1=O	·	0.33
Cc1ccc(/C(O)=C2\C(=O)C(=O)N(c3ccccn3)C2c2ccc(C(C)C)cc2)cc1 (stereo not drawn)	·	-0.45
O=C1CCCC2=C1C(c1ccco1)c1c([nH]n(-c3ccccc3)c1=O)N2 (stereo not drawn)	0.1	-2.6
CC1=C(C(=O)Nc2ccccc2C)C(c2ccco2)C(C#N)=C(SCC(=O)Nc2cccc(Cl)c2)N1 (stereo not drawn)	·	-0.19
CSc1nc(-c2ccco2)nn1C(=O)c1ccc(C)cc1	-0.55	·
COCc1cc(C)c(C#N)c(=O)[nH]1	0.45	98
CCCS(=O)(=O)c1csc(C(=O)OC)c1Cl	0.75	-0.23
Cc1cccc(C)c1Nc1c(CN2C(=O)c3ccccc3C2=O)nc2ccc(Br)cn12	0.05	0.34
COc1cccc(C(=O)Nc2ccccc2N2CCCCC2)c1	-0.25	·
NC(=O)C1(N2CCCCC2)CCN(C(=S)NCc2ccco2)CC1	-0.3	0.24
CC1CCN(C(=O)COC(=O)COc2ccc(Cl)cc2)CC1	0.8	-1
N#Cc1cc2c(nc1SCC(=O)c1ccccc1)CCCC2	1.4	-0.28

One compound at a time, as listed above. Order of values: AID504770	Ba CapD inh
`CCSc1cc(C(F)(F)F)c(C(=O)N(C)Cc2c(OC)cccc2OC)cn1` is entered as 2	-0.12
`N#Cc1cc2c(nc1SCC(=O)c1ccccc1)CCCC2` is entered as 1.4	-0.28
`CCOC(=O)c1nc(-c2ccccc2)sc1-c1ccnn1C(=O)NC(C)C` is entered as -0.05	48

New compounds follow:
SMILES	AID504770	Ba CapD inh
Fc1ccc(-c2nc3cc(N=C/C=C/c4ccc5c(c4)OCO5)ccc3o2)cc1	-0.7	-0.03
CC1(C)C/C(=N\NC(=O)CC#N)CCO1	0.85	0.85
COC(=O)CSc1nnc(CNC(=O)c2cccs2)n1-c1cccc(C)c1	0.85	7.8
CCOC(=O)c1cc(C)nc(Sc2ccccc2Cl)n1	0.05	0.8
Oc1c(C(c2ccccc2)N2CCOCC2)ccc2cccnc12 (stereo not drawn)	-0.35	-0.8
NNC(=O)C1CC2CC1CC2C(=O)NN (stereo not drawn)	-1.4	0.04
COc1ccc(S(=O)(=O)NCCc2cn3cccc(C)c3n2)cc1OC	-0.85	·
CCOC(=O)C1CCCN(C(=O)C2c3cc(OC)c(OC)cc3C(=O)N(C)C2c2ccc(OC)cc2)C1 (stereo not drawn)	-0.25	0.26
CCc1cc(Br)ccc1S(=O)(=O)NC(COC)Cc1ccccc1 (stereo not drawn)	·	0.67
Cc1ccc(CS(=O)(=O)CC(O)COc2ccc(F)cc2)cc1 (stereo not drawn)	0.15	0.49
Cc1ccc2c(cnn2C(=O)CCC(=O)N2CCCCC2C)c1 (stereo not drawn)	-0.35	0.28
O=C(c1cnn(-c2ccccc2)n1)N1CCCN(S(=O)(=O)c2ccc(F)cc2)CC1	0.25	·
O=C(Cc1coc2ccc3ccccc3c12)Oc1ccc(-c2nnco2)cc1	0.15	·
O=S(=O)(Cc1nc(-c2ccsc2)no1)c1ccc(Cl)cc1	-0.3	0.66
CCOC(=O)N1CCN(S(=O)(=O)c2cc(C(=O)Nc3cc(Cl)cc(Cl)c3)ccc2F)CC1	·	-0.17
O=C(CSc1ncc(C(F)(F)F)cc1Cl)NCCCN1CCCC1=O	-0.1	·
Cc1ccc(-c2csc(-c3cc4cc(Cl)ccc4oc3=O)n2)c(C)c1	·	-0.35
N#CCC(=O)Nc1ccccc1C(F)(F)F	0.15	·
CCOc1ccccc1NC(=O)c1c(NC(=O)COc2ccc(Cl)cc2)sc2c1CCC2	·	-0.36
CN(C(=O)Cn1ncc2c1-c1ccccc1OC2)c1ccccc1	-1.2	-0.47
O=c1nc2n(c3cc(Cl)c(S(=O)(=O)N4CCOCC4)cc13)CCC2	0.85	·
CCOc1ccc(CCNC(=O)Nc2cn(C)c(=O)c3ccccc23)cc1OCC	-0.15	6.2
COC(=O)c1sc2cc(=O)n(-c3cccc(C(F)(F)F)c3)nc2c1O	·	-0.32
COC(=O)c1cc(OC)c(OC)cc1NC(=O)CCC(=O)O	·	5.5
O=C(CSc1nccc(=O)[nH]1)Nc1ccc(Oc2ccccc2)cc1	-0.9	-0.39
O=C(O)c1ccccc1OCc1ccccc1	-0.5	4.7
CC1CN(c2cc(-c3ccccc3)c3ccccc3n2)CC(C)O1 (stereo not drawn)	0.1	·
Cc1c(-c2ccccc2OC(=O)c2ccccc2)[nH]c2ccccc12	0.95	-0.44
CCCCc1ccc(NC(=O)COC(=O)c2ccc(Cl)nc2)cc1	1.4	-0.05
O=C(COc1ccc(Br)cc1)OCC(=O)N1CCCCC1	-0.1	0.22

Looked up by structure from the list above (two):
SMILES	AID504770	Ba CapD inh
O=C(COc1ccc(Br)cc1)OCC(=O)N1CCCCC1	-0.1	0.22
CCOc1ccccc1NC(=O)c1c(NC(=O)COc2ccc(Cl)cc2)sc2c1CCC2	·	-0.36

Other results:
SMILES	AID504770	Ba CapD inh
Cc1cc(F)ccc1S(=O)(=O)Nc1ccccc1C(=O)OCC(=O)N1CCCC1=O	1.4	·
COc1ccc(C(=O)C(C)(C)NO)cc1	-1.5	0.15
COc1ccccc1NS(=O)(=O)/C=C/c1ccccc1	-0.95	-0.15
CC(NC(=O)c1ccccc1)c1nc(-c2ccccc2)no1 (stereo not drawn)	0.05	-0.12
Cc1ccc(CNc2ncnc3nc[nH]c23)cc1	-1.1	-0.34
CCN1C(=O)/C(=C2/C=Cc3ccccc3N2C)OC1=S	1.6	-0.05
COc1cccc(C2C3=C(CC(C)(C)CC3=O)Nc3ccccc3N2C(=O)Cc2ccccc2)c1 (stereo not drawn)	·	0.56
CC(C)CCn1c(Br)nc2c1c(=O)n(Cc1ccccc1)c(=O)n2C	1.1	·
CCn1c(=O)n(CC(=O)Nc2ccc(Cl)cn2)c(=O)c2ccccc21	·	0.59
CN(C(=O)COC(=O)c1cccs1)c1ccccc1	-1.5	·
N#CC1CN(C(c2ccccc2)c2ccccc2)C1	·	-0.005
C=CCNC(=S)NNc1nccc(-c2cccnc2)n1	0.25	0.52
COc1ccc(Oc2coc3cc(OC(=O)c4c(OC)cccc4OC)ccc3c2=O)cc1	·	-0.29
CCN(CC)c1nc(N2CCN(C)CC2)nc2ccccc12	-0.7	·
C(=C\c1ccncc1)/c1ccccc1	·	0.75

As entered above.
C(=C\c1ccncc1)/c1ccccc1 in Ba CapD inh is listed with 0.75
COc1ccc(Oc2coc3cc(OC(=O)c4c(OC)cccc4OC)ccc3c2=O)cc1 in Ba CapD inh is listed with -0.29
COc1cccc(C2C3=C(CC(C)(C)CC3=O)Nc3ccccc3N2C(=O)Cc2ccccc2)c1 (stereo not drawn) in Ba CapD inh is listed with 0.56

(further entries)
SMILES	AID504770	Ba CapD inh
NC(N)=N/N=C/C=C/c1ccccc1	0.15	-1.1
COc1ccc(CCNc2nnc(Cc3cccnc3)c3ccccc23)cc1OC	1.1	-1.2
N#CCc1ccc(N2C(=O)CCC2=O)cc1	0.25	-0.46
Cc1ccc(C(=O)OCCCCN2C(=O)c3ccccc3C2=O)cc1NC(=O)c1ccco1	-0.45	·
NC(=O)c1ccccc1N1CCCCC1	·	0.37
CC1CC(C)(C)NC(=S)N1CCCC(=O)Nc1ccc2c(c1)OCCO2 (stereo not drawn)	0.3	-0.4
C=C(C)CN(CC)Cc1ccc(C(=O)OC)cc1	0.15	0.005
Cc1cc(C)nc(SCCS(=O)(=O)Cc2ccccc2)n1	-0.6	-0.03
NNC(=O)c1csc(CS(=O)(=O)c2ccc(Cl)cc2)n1	-0.25	9.4
CCCc1cnc(N2CCOCC2)nc1	-1.5	6.2
O=C(NC1CC2CCC(C1)N2C(=O)NC1CCCCC1)NC12CC3CC(CC(C3)C1)C2 (stereo not drawn)	-1.4	·
Cc1cccc(C)c1NC(=O)c1cnc(NC(C)C)cc1C(F)(F)F	-0.6	84
NC(=O)CN1C(=O)C(O)(CC(=O)c2ccccc2)c2ccccc21 (stereo not drawn)	-1.4	0.025
COC(=O)c1ccc(COC(=O)C2CCN(C(=O)c3ccc(Cl)cc3)CC2)o1	0.35	·
Cc1ccc(F)cc1S(=O)(=O)N1CCC(C#N)(c2ccccc2)CC1	·	-0.04

Ordered by length of the SMILES (falling): some entries from above
SMILES	AID504770	Ba CapD inh
Cc1ccc(F)cc1S(=O)(=O)N1CCC(C#N)(c2ccccc2)CC1	·	-0.04
COc1ccc(CCNc2nnc(Cc3cccnc3)c3ccccc23)cc1OC	1.1	-1.2
NNC(=O)c1csc(CS(=O)(=O)c2ccc(Cl)cc2)n1	-0.25	9.4
C=C(C)CN(CC)Cc1ccc(C(=O)OC)cc1	0.15	0.005
NC(N)=N/N=C/C=C/c1ccccc1	0.15	-1.1
CCCc1cnc(N2CCOCC2)nc1	-1.5	6.2

(cont.)
SMILES	AID504770	Ba CapD inh
CCOC(=O)COc1ccccc1C#N	-1.1	0.99
COc1ccc(CNc2ccc(NC(=O)c3ccco3)c(C)c2)cc1	1.1	-0.31
COC(=O)c1cc(S(=O)(=O)C(C)C)c(S(C)(=O)=O)s1	-0.4	-0.29
CC(C)(C)c1cc2cc(NC(=O)c3ccc(C(F)(F)F)cc3)ccc2[nH]1	·	-0.34
CC(=O)NC1(C)CCC(C(C)(C)C#N)C1 (stereo not drawn)	-0.4	-0.15
Cc1[nH]c(SCC(=O)NCCN2CCOCC2)nc1Cc1ccccc1	-0.5	·
CCN(CC)S(=O)(=O)c1cccc(C(=O)Nc2nncs2)c1	0.55	-0.2
COc1cc(I)c(OC)cc1C	·	0.23
COC(=O)c1ccc(NC(=O)C2CC(=O)N(Cc3ccc4c(c3)OCO4)C(=Nc3ccc(OC)cc3)S2)cc1 (stereo not drawn)	·	-0.03
CSc1ccccc1C(=O)NCC(c1ccco1)N(C)C (stereo not drawn)	1.2	·
O=C(CN1C=NS(=O)(=O)c2ccccc21)N1CCCCCC1	-0.25	-1.4
COc1ccc(CCNC(=O)c2ccc([N+](=O)[O-])cc2)cc1OC	·	0.31
Cc1cc(C(=O)CSc2nnc3sc4ccccc4n23)c(C)n1CCc1ccccc1	-0.2	·
COc1ccc(-c2cc(C(=O)N3CCN(Cc4ccccc4)CC3)[nH]n2)cc1	0.55	-1.1
CC(=O)N1C(=O)N(C)C2C1N(C(C)=O)C(=O)N2C (stereo not drawn)	-0.5	-0.2
Brc1ccc(-c2nc(N3CCCC3)c3ccccc3n2)cc1	·	-0.51

Compounds as they come (roughly 0.41% active in at least one column).
